# Assay outcomes as filed in PubChem.
# HIV Env fusion: inhibitors of HIV-1 Env-driven cell-cell fusion, primary screen, HeLa-JRFL effector, CEM21 target cells, luciferase; 360,000 tested, 1.1% active; inhibition, % at 12.3 µM;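 active means mean replicate inhibition score of at least 50 and every replicate individually at or above 50; inconclusive means only one of the two criteria met; inactive means mean below 50 and not all replicates reaching 50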;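 further: 0% = plate neutral controls and 100% = maraviroc near 300 nM; one replicate is shown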
# MT1-MMP act inh: blockers of MT1-MMP proenzyme processing, primary screen, HT1080 RFP-PRO-GFP cells, GFP/RFP fluorescence; Matrix metalloproteinase-14 (Homo sapiens), P50281; GFP/RFP ratio fluorescence, overnight; percent of plate control window, DMSO zero; GFP/RFP ratio change, % at 20 µM; 360,000 tested, 0.061% active;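 active means GFP/RFP ratio change of at least 30% with cell ATP level not reduced by more than half and red fluorescence within 50% of control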; further: strong numbers were not always called active
#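 Material: RFP-PRO-GFP reporter HT1080 cells. Dosing: single-point 20 µM compound, 1% DMSO. Controls: DMSO and RFP-L50D-GFP cell wells. Timing: cells overnight before dosing, compound overnight, 37 °C, 5% CO2. Measure: GFP/RFP fluorescence ratio.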
# PABP polyA inh: PABP poly(A) RNA binding inhibitors, primary screen, biochemical, fluorescence polarization, uHTS; Polyadenylate-binding protein 1 (Homo sapiens), P11940; inhibition, % at 35 µM; 290,000 tested, 1% active;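 active means 50% or more with normal probe brightness, or confirmed in later tests; inconclusive means above 50% with abnormal brightness, or retests that disagree; inactive means below 50% or failed in later tests; about a fifth of its hits are not listed in these tables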;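 further: calls also rest on retests at 20 µM and on dose response follow-up; controls were probe without protein and protein plus probe with vehicle; some compounds called inactive have numbers as strong as hits; many hits fall short of the cut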
# Target sequence (P11940 whole entry, looked up): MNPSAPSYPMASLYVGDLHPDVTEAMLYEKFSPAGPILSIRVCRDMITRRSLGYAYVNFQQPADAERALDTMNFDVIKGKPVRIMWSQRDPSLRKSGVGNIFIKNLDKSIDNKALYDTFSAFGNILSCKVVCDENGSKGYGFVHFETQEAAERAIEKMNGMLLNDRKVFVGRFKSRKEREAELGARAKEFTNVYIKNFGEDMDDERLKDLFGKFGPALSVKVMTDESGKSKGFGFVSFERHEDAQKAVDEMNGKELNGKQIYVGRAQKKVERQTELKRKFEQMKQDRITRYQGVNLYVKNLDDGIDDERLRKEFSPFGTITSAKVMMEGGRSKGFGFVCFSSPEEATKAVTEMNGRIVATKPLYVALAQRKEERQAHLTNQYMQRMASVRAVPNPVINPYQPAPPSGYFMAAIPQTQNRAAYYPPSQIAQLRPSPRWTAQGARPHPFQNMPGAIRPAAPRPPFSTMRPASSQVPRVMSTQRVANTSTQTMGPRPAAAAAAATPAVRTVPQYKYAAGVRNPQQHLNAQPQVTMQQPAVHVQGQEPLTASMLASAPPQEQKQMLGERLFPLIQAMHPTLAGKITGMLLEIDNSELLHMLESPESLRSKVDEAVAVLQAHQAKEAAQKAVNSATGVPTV
# CSC inhib: cancer stem cell viability inhibitors, primary screen, luminescence; cancer stem cell-like cells viability; inhibition, % at 7.5 µM; 300,000 tested, 1.1% active;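 active means mean at 75% or more and at least half the replicates too; inconclusive means mean and replicates disagree; tested in HMLE shEcad cells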;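 further: 0% = median of negative and 100% = median of positive control wells; the first replicate is given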
# eIF4H inh: human eIF4H binding inhibitors, primary screen, translation initiation inhibitor project, biochemical, uHTS, fluorescence polarization | Eukaryotic translation initiation factor 4H (Homo sapiens), Q15056 | eIF4H fluorescence polarization binding assay | inhibition, % at 35 µM | 290,000 tested, 0.94% active;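 active means 50% or more with normal probe brightness, or confirmed in later tests; inconclusive means above 50% with abnormal brightness, or retests that disagree; inactive means below 50% or failed in later tests; about a fifth of its hits are not listed in these tables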;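 further: calls also rest on retests at 20 µM and on dose response follow-up; 0% = protein and probe with vehicle and 100% = probe without protein; strong numbers were not always called active; many hits fall short of the cut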
# Yeast UUG start: modulators of yeast start codon fidelity, primary screen, whole organism, S. cerevisiae, single point, plate reader; 350,000 tested, 0.13% active; activity score, % at 18.7 µM; S. cerevisiae UUG-firefly luciferase reporter, luminescence/redox ratio;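 active means replicate mean at a twofold rise or more, about +100% in these data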;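 further: firefly luciferase made from a UUG start codon reports start codon fidelity; reporter light over untreated wells divided by growth signal over untreated wells; some hits fall short of that in this replicate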
# Rce1 inh: yeast Rce1p protease inhibitors, primary screen, biochemical, fluorescence, cell-free homogeneous; CAAX prenyl protease 2 (Saccharomyces cerevisiae (strain ATCC 204508 / S288c)), Q03530; yeast membranes, quenched prenylated peptide cleavage fluorescence; calls only; 290,000 tested, 0.27% active; AID 2563, 2010;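 active means fall in fluorescence gain of 50% or more versus controls, with final raw signal at or below 3038400; inconclusive means same 50% fall but final raw signal above 3038400; inactive means fall in fluorescence gain under 50%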;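 further: plate controls were neutral control wells for no effect and wells lacking membranes for full effect; tested at 10 µM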
# Target sequence (Q03530 whole entry, looked up): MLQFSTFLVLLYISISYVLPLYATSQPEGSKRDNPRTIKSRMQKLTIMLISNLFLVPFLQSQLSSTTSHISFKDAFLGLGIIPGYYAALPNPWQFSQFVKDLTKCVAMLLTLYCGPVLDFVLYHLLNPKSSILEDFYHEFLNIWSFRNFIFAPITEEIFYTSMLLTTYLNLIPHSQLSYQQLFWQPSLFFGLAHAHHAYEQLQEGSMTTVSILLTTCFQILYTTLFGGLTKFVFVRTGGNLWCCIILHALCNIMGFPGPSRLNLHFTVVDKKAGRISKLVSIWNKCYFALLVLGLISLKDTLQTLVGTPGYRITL
# MT1-MMP act inh RFP: also measured in MT1-MMP act inh; calls as there; RFP signal change, %; measured here: RFP expression control read;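 0 = vehicle wells; hits needed this value within 50% of zero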
# * hit, by the source's call; i = inactive; ? = inconclusive; nt = not tested or not shown.
SMILES,HIV Env fusion,MT1-MMP act inh,MT1-MMP act inh RFP,PABP polyA inh,CSC inhib,eIF4H inh,Yeast UUG start,Rce1 inh
COc1ccc(C2=NC(CO)(CO)CO2)cc1,22,8,5,?,-15,-3,nt,nt
COc1ccc(OCc2cc(C(=O)N(C)C3CCOC3)no2)c(Cl)c1 (stereo unspecified),-10,-2,-2,-3,-18,-1,0,i
CN(CC(=O)Nc1ccccc1Cl)C(=O)COC(=O)c1ccc([N+](=O)[O-])cc1Cl,-15,-1,2,nt,-4,nt,4,i
CCOC(=O)c1sc(NC(=O)CCN2CCN(CC)CC2)c(C(=O)OCC)c1C,-7,-2,-1,0,35,4,nt,i
C/C(CC(=O)NCc1ccco1)=N\NC(=O)Cc1ccc(Cl)cc1,nt,3,6,10,-8,-4,-6,i
CN(C)S(=O)(=O)c1ccc(S(=O)(=O)NCc2cccs2)cc1,2,0,0,6,1,-4,-10,i
Cn1cccc1/C=C1/SC(=S)N(CC(=O)O)C1=O,-19,-3,4,4,7,?,-6,i
CC(C)c1cc(=O)n2[nH]c(N)nc2n1,5,5,3,-2,-3,-16,-22,i
C=CC[n+]1c(-c2ccc(Cl)cc2Cl)csc1Nc1ccc(NC(C)=O)cc1,24,-7,-17,10,-6,-7,nt,i
COc1ccc(CNC(=O)CS(=O)(=O)Cc2nc(-c3cccc(OC)c3)oc2C)cc1,7,1,-6,8,-2,4,-22,i
CC(=O)c1ccc(N2Cc3ccccc3/C2=N\C(=O)Nc2ccc(Cl)cc2)cc1,-10,6,5,-5,16,?,nt,i
Cc1c(CNC2CCCC2)c(C(=O)O)c(C)n1Cc1ccccc1,-3,0,2,-6,5,-10,-11,i
CCOC(=O)c1ccccc1NC(=O)COC(=O)C1=COCCO1,nt,2,4,0,-10,3,nt,i
Nc1c(C(=O)N2CCOCC2)sc2nc(N3CCOCC3)c3c(c12)CCCC3,-82,2,2,3,-5,-6,5,i
COc1cccc(Nc2cc(C)c3ccccc3n2)c1,-11,2,3,-4,6,2,-15,i
Cc1ccnc(NC(=O)CN2C(=O)c3ccccc3C2=O)c1,-19,2,7,-12,-3,-9,nt,i
CCCCN1C(=O)C(O)(CC(=O)c2ccco2)c2cc(Br)ccc21 (stereo unspecified),16,0,5,0,37,-1,-10,i
Cn1c(-c2ccccc2F)cc2onc(-c3ccccc3)c2c1=O,-393,2,-18,nt,-2,nt,-67,nt
CCC1Sc2ccccc2N(CC(=O)NC2CC2)C1=O (stereo unspecified),4,1,3,-2,-7,5,-3,i
CC(c1ccccc1)N1C(=O)c2ccccc2C1O (stereo unspecified),nt,1,0,-9,0,-1,-9,i
CCCCCC(=O)NNC(=O)Nc1ccccc1,-41,-3,1,-7,-3,-8,nt,i
CC(NC(=O)CSc1n[nH]c(=O)n1C1CC1)C12CC3CC(CC(C3)C1)C2 (stereo unspecified),-37,5,4,0,-3,7,-4,i
COc1ccc2nc(NNC(=O)COc3ccccc3)sc2c1,-14,2,7,11,-9,5,nt,i
CCOc1cc(/C=N/N=C(/N)c2nonc2N)cc(Br)c1OCc1ccc(Cl)cc1,-13,-4,-4,-2,15,6,nt,i
O=S(=O)(NC1CC1)c1ccc(S(=O)(=O)N(Cc2ccccn2)C2CC2)cc1,-7,-1,-1,-9,1,-4,-9,i
COCCNC(=O)C(c1cccs1)N(C(=O)Cn1nnc2ccccc21)c1cccc(C)c1 (stereo unspecified),nt,0,4,-6,-11,8,-1,i
O=C(N/N=C/c1cccs1)c1cccc2cc[nH]c12,nt,-2,-5,-14,3,-2,-6,i
COc1ccc(Cc2nnc(Nc3c(C)cccc3C)o2)cc1OC,-1,0,0,7,2,-5,-18,i
CSc1nc2ncnc(N)c2[nH]1,5,2,-1,0,4,-2,-1,i
CCCn1c(N/N=C(C)\C=C\c2ccccc2)nc2c1c(=O)[nH]c(=O)n2C,nt,nt,nt,0,5,-9,nt,i
C=CCn1c(COc2cc(C)ccc2C(C)C)nnc1SCC(=O)c1c(N)n(C)c(=O)n(C)c1=O,2,2,-8,-5,-11,-5,nt,i
CCN(CC)C(=O)c1ccccc1NC(=O)CN1C(=O)c2ccccc2C1=O,-12,-1,1,1,3,-3,nt,i
O=C(Nc1ccc(F)cc1)c1cc(S(=O)(=O)N2CCOCC2)cs1,25,2,-10,-9,-1,4,-2,i
C[N+]1(CC(O)c2ccccc2)CCCCCC1 (stereo unspecified),8,-2,3,nt,-6,nt,4,i
O=C(O)C(Cc1cc(Cl)ccc1Cl)Sc1nc2ccccc2[nH]1 (stereo unspecified),-49,-2,2,12,-1,-13,-5,i
CC(=O)c1cccc(OCc2cc(C(=O)N(C)Cc3cnccn3)no2)c1,-22,1,1,0,-8,-6,-19,i
CCOC(=O)C1CCN(Cc2nnc(-c3cccc(Br)c3)o2)CC1,5,-1,0,12,-13,3,-5,i
O=C(Nc1ccc2c(c1)OCCO2)C1CC(c2ccccc2Cl)=NO1 (stereo unspecified),-19,0,1,0,-6,0,-1,i
CC1=C(C(=O)OC(C)C)C(c2coc3ccccc3c2=O)C2=C(CCCC2=O)N1 (stereo unspecified),nt,-3,1,-1,-7,5,4,i
CCCn1c(C(Cc2ccccc2)NC(=O)COC)nc2ccccc21 (stereo unspecified),-51,2,1,-2,-12,14,-17,i
Cc1c(Cl)cccc1NC(=O)CCCn1nc([N+](=O)[O-])cc1C,7,3,-4,-15,-14,2,nt,i
Cn1c(=O)c2c(-c3ccccc3)n(-c3cccc(Br)c3)cc2n(C)c1=O,-5,1,-1,nt,nt,nt,-3,nt
Brc1ccc(/C=N/Nc2ccc3ccccc3n2)cc1,nt,nt,nt,-2,-31,-2,18,i
CCOC(=O)C1CCN(S(=O)(=O)c2nc3nc(C)cc(C)n3n2)CC1,nt,-5,3,-1,2,-17,-13,i
CCn1c(CNC(=O)c2cccs2)nnc1SCC(=O)Nc1cc(Cl)ccc1C,19,-1,-5,-3,nt,-2,-8,i
C[C@H]1COc2c(C3(N)CC3)c(F)cc3c(=O)c(C(=O)O)cn1c23,nt,nt,nt,7,-4,-4,nt,i
C[C@@H]1NC(=O)[C@@]2(C)[C@@H](c3ccccc3)[C@H]3COc4ccc(Cl)cc4[C@@H]3N2C1=O,12,-1,-1,nt,-19,nt,5,nt
CC1(C)C/C(=N\NC(=S)Nc2ccccc2F)c2cc(O)ccc2O1,29,0,-6,-10,57,3,nt,i
O=C(Cn1cnc2c(cnn2-c2ccc(F)cc2)c1=O)N1CCN(c2ccccc2)CC1,nt,6,6,5,nt,-6,-10,i
CCc1ccc(CN(C)Cc2c(C(=O)N3CCOCC3)nc3c(C)cccn23)nc1,19,4,2,nt,nt,nt,-10,nt
O=C1CCCC/C1=N\Nc1ccc(C2CCCCC2)cc1,nt,nt,nt,-4,44,-2,nt,i
Cc1ccc(OCC(=O)NNC(=O)CSc2nnc(-c3ccc(C)cc3)n2C)cc1,4,6,1,26,-4,1,-11,i
O=C(/C=C/c1cccs1)N1CCN(Cc2ccc3c(c2)OCO3)CC1,17,-1,3,9,-12,1,nt,i
CN(Cc1cn(-c2ccccc2)nc1-c1ccc2c(c1)OCO2)Cc1nccn1C,10,-10,-11,-1,0,-7,-7,i
CCO[C@@H]1OC(C(=O)NCc2nc3ccccc3[nH]2)=C[C@H](c2ccc(C(F)(F)F)cc2)[C@H]1CCCO,-26,1,-2,3,-12,-9,13,i
Cc1ccc(NC(=O)CSCC(=O)Nc2cc(Cl)ccc2N2CCN(C)CC2)cc1,-7,3,1,nt,-14,nt,nt,i
CCN(C(=O)CSc1ncccc1C(=O)Oc1cccc([N+](=O)[O-])c1)c1cccc(C)c1,1,-3,-2,2,9,-10,20,i
O=C(Nc1ccc(Cl)cc1)c1cc2nc(C3CC3)cc(C(F)(F)F)n2n1,-52,-4,-4,-4,6,-4,-12,i
CCOc1ccc(/C(O)=C2\C(=O)C(=O)N(CCN(C)C)C2c2cccc(OC)c2OC)cc1Cl (stereo unspecified),nt,1,0,0,10,-7,-10,i
Cc1[nH]oc(=O)c1N=Nc1ccc2[nH]c(=O)[nH]c2c1,-36,3,1,nt,-13,nt,2,i

# Copied from above, 2 compounds:
SMILES,HIV Env fusion,MT1-MMP act inh,MT1-MMP act inh RFP,PABP polyA inh,CSC inhib,eIF4H inh,Yeast UUG start,Rce1 inh
CCOc1ccc(/C(O)=C2\C(=O)C(=O)N(CCN(C)C)C2c2cccc(OC)c2OC)cc1Cl (stereo unspecified),nt,1,0,0,10,-7,-10,i
Cc1[nH]oc(=O)c1N=Nc1ccc2[nH]c(=O)[nH]c2c1,-36,3,1,nt,-13,nt,2,i

# (list continues)
SMILES,HIV Env fusion,MT1-MMP act inh,MT1-MMP act inh RFP,PABP polyA inh,CSC inhib,eIF4H inh,Yeast UUG start,Rce1 inh
CCOC(=O)C(O)(CC(=O)Nc1cc(F)ccc1C)C(F)(F)F (stereo unspecified),7,1,3,-8,-14,0,nt,i
Cc1cc(C)cc(NC(=O)CCC(=O)Nc2cc(C)on2)c1,nt,5,0,15,-6,-2,-12,i
CCn1c(C)cc(O)c(C(=O)Nc2cccc(Cl)c2)c1=O,-23,2,3,-6,-4,-6,-6,i
CN(C)c1ccc(N2[C@@H](CC(=O)O)c3cc(C(F)(F)F)ccc3S2(=O)=O)cc1,-13,2,-1,nt,7,nt,-18,i
Nc1cc(-c2ccc(Cl)cc2)nn1S(=O)(=O)c1cccc2nsnc12,42,1,-11,4,11,6,-17,i
CCN(C(=O)COC(=O)c1ccc([N+](=O)[O-])o1)c1cccc2ccccc12,nt,3,0,nt,20,nt,-7,nt
CC(C)CC(=O)NC(=S)Nc1ccccc1F,-62,3,1,2,nt,-8,-12,i
O=C(CC(=O)N/N=C/c1c(F)cccc1Cl)NCc1ccccc1,11,nt,nt,2,-10,-15,nt,i
CCOC(=O)/C(N=Nc1ccc(Cl)cc1)=C(/O)c1ccc([N+](=O)[O-])cc1,nt,0,0,2,-6,6,-1,i
CCc1nc(SCC(=O)N2CCC(C)CC2)c2c(=O)n(C)c(=O)n(C)c2n1,20,3,0,3,-14,2,3,i
CN1C(=S)SC(C)(NO)C1(C)C (stereo unspecified),nt,11,4,3,-9,-6,-15,i
COc1cc2[nH]c(=O)n(Cc3ccccc3Cl)c(=O)c2cc1OC,11,-2,-2,10,-7,4,-25,nt
COc1ccc(S(=O)(=O)N2CCCN(CCC(=O)Nc3cccc(C(F)(F)F)c3)CC2)cc1,nt,-8,-14,-5,-2,-4,3,nt
Cc1ccc(C(=O)N2C(=S)C(c3ccc(F)cc3)=NC23CCN(C)CC3)cc1,0,0,3,4,-10,2,-2,i
Clc1ccc(-c2csc(N/N=C/c3ccc4c(c3)OCO4)n2)cc1,22,-1,-3,-2,1,-20,nt,nt
O=S(=O)(Nc1ccncc1)c1ccc(Cl)cc1,-1,1,4,0,-12,-7,-10,i
COc1nc(Nc2ccc([N+](=O)[O-])cc2)nc(NC2CCCCC2)n1,17,-11,-15,-9,13,-5,-11,i
COc1ccc(CNC(=O)C2Cc3c(-c4ccc5c(c4)OCO5)ccnc3O2)cc1OC (stereo unspecified),-20,-4,-12,nt,nt,nt,-3,nt
CCOC(=O)C1CCN(C(=O)COC(=O)c2nn(C)c(=O)c3ccccc23)CC1,3,-1,0,nt,1,nt,-2,i
